Bioassay records deposited in PubChem by National Center for Advancing Translational Sciences (NCATS).
EPAC2 ant val = Validation qHTS for antagonist of cAMP-regulated guanine nucleotide exchange factor 4 (EPAC2). Rap guanine nucleotide exchange factor 4 (Homo sapiens), Q8WZA2. EPAC2 Rap1B BODIPY-GDP exchange, fluorescence. Potency, µM (series often up to 112 µM), without a hit: at the top dose activity, negative = inhibition, actives largely listed as inhibitors. actives 1.7% (n = 16,000); active means well fitted inhibition curve with a large enough effect; inconclusive means small, poorly fitted or top-dose-only effect; inactive means no such curve, though single readings can be large or run the other way;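 further: 100% = activation by cAMP agonist control; nearly all actives have a fitted effect of over 40% in size; the record reuses the description of the EPAC1 agonist screen; inactives centre near -10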
Target sequence (Q8WZA2 whole entry, looked up): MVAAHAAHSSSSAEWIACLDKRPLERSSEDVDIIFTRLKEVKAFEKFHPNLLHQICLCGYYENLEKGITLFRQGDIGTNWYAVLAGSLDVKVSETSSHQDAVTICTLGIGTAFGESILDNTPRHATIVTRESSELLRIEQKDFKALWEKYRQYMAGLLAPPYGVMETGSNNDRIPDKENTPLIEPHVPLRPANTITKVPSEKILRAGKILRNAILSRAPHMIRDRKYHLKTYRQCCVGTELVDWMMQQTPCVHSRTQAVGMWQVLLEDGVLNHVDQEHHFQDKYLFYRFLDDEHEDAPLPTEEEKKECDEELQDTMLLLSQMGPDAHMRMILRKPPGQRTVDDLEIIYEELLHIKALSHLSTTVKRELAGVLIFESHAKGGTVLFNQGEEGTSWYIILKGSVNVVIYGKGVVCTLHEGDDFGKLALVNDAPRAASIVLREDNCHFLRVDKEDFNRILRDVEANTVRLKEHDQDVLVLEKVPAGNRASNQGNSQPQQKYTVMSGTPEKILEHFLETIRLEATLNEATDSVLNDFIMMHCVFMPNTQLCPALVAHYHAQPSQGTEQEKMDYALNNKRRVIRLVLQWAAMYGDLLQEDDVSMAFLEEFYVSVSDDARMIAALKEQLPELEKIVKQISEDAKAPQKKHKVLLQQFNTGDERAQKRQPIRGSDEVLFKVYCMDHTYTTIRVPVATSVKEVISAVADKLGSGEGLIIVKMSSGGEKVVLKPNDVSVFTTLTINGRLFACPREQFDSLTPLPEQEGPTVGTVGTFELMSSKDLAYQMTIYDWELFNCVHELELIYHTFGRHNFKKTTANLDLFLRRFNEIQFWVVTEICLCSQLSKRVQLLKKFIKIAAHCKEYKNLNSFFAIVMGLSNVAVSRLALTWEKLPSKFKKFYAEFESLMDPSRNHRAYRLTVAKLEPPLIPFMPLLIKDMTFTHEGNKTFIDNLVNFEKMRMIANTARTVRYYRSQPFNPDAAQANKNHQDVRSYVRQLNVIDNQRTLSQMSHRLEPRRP
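Normalized against a 6.5 mM cAMP agonist control, compounds were tested on 100 nM EPAC2 exchanging Rap1B-bound BODIPY-GDP (250 nM) for 50 uM GDP. Fluorescence drop (ex 480, em 540 nm) was tracked at room temperature over 30 min at 5-min intervals.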
Starred values were filed as active, the others as inactive; ? = inconclusive; & = joins results of further samples; ! = not active in a repeat; [ ] = remark or other dose. Potency means the concentration at half of the fitted maximal effect. This is a subset, so the mix of outcomes need not match the whole.

SMILES	EPAC2 ant val
C=CC[N+]1([C@H]2C[C@H]3[C@@H]4CC[C@H]5C[C@H](OC(C)=O)[C@@H](N6CCCCC6)C[C@]5(C)[C@H]4CC[C@]3(C)[C@H]2OC(=O)CC)CCCCC1	7%
CCc1ccc(S(=O)(=O)NCc2nc(N3CCCC3)c3cccc(C)c3n2)cc1	?
CC1(C)CO[C@@H](CC(=O)O)CN1	73%[activator]
Cc1c(C(=O)N(C)C2CCOC2)cnn1-c1ncc2c(n1)-c1ccccc1CCC2 (stereo unspecified)	?
OC(CCN1CCCCC1)(c1ccccc1)c1ccccc1	-10%&-18%
NS(=O)(=O)c1cc(C(=O)O)c(NCc2ccco2)cc1Cl	4%&-14%
Cc1c(C)c2c(c(C)c1O)CC[C@@](C)(CCC[C@H](C)CCC[C@H](C)CCCC(C)C)O2	-28%&-10%&-18%
CSc1ncccc1C(=O)N1CCc2nnc(C(NC(=O)c3ccoc3)C(C)C)n2CC1 (stereo unspecified)	-2%
COc1ccccc1-c1cc(-n2ccnc2)ncn1	-27%
O=Cc1ccc(I)cc1	-8%
CN1C(=O)OC(C)(C)C1=O	-3%[56.6 µM]
COc1ccccc1C1CN(Cc2ccc(Sc3nncn3C)o2)Cc2ccccc2O1 (stereo unspecified)	-18%
Cc1ccc(S(=O)(=O)/C=C/C#N)cc1	1%&-14%
CC1=CC2C(=O)c3cccc(O)c3C(=O)C2C(O)=C1 (stereo unspecified)	-10%
COc1ccc(CN2CCCC(Cn3cc(C(=O)N4CCCC4)nn3)C2)c(O)c1 (stereo unspecified)	19%
CN(C)CCOC1=Cc2ccccc2Sc2ccc(Cl)cc21	-7%
COc1c(C)c2c(c(O)c1C/C=C(\C)CCC(=O)O)C(=O)OC2	-18%[56.6 µM]
CN1CCN(c2ncc3nc(-c4ccccc4)c(=O)n(C4CC4)c3n2)CC1	-32%
Cn1c(=O)c(-c2cccs2)nc2cnc(OCc3ccccc3)nc21	10%
Cn1c(=O)c(-c2ccc(F)cc2)nc2cncnc21	-13%
COc1cccc(-c2cc(=O)c3ccccc3o2)c1N	-18%
CC1(C)C(=O)C2C[C@]3(O)C4=CC(=O)OC(c5ccoc5)[C@]4(C)CCC3[C@](C)(C2=O)C1CC(=O)O (stereo partly specified)	-3%
COc1ccccc1CN1CCCC2(CCN(C(=O)c3cccc(F)c3)CC2)C1	-22%
CC1=CC(=O)OC1Cc1ccc2ccccc2n1 (stereo unspecified)	-8%

Rewritten with bars between the fields: part of the list above.
molecule | EPAC2 ant val
Cc1ccc(S(=O)(=O)/C=C/C#N)cc1 | 1%&-14%
Cn1c(=O)c(-c2cccs2)nc2cnc(OCc3ccccc3)nc21 | 10%
CC1=CC(=O)OC1Cc1ccc2ccccc2n1 (stereo unspecified) | -8%
COc1cccc(-c2cc(=O)c3ccccc3o2)c1N | -18%
COc1c(C)c2c(c(O)c1C/C=C(\C)CCC(=O)O)C(=O)OC2 | -18%[56.6 µM]
Cn1c(=O)c(-c2ccc(F)cc2)nc2cncnc21 | -13%

More results:
SMILES	EPAC2 ant val
CC(=O)NC(=O)c1ccccc1O	23%
Cc1cc(CNC(=O)c2cnn(-c3ncc4c(n3)-c3ccccc3CC4)c2C2CC2)on1	-29%
O=C1CC[C@@H](OCc2ccccc2)CCN1CC[C@H](Sc1ccccc1)c1ccccc1	?
COc1ccc(CNc2ncncc2-c2ccoc2)c(OC)c1	?
COc1cc(/C=C(\C#N)C(N)=O)cc(CSc2nc3ccccc3s2)c1O	-25%[151 µM]
COc1ccc(-n2c(=O)c(-c3cn(C)c4ccccc34)nc3cnc(OC)nc32)cc1	-21%
Cc1nc2ccccc2nc1CN1CCOc2ccc(CN3CCc4sccc4C3)cc2C1	3%
c1ccc2c(CCC3CCNCC3)c[nH]c2c1	-10%
C[C@@H](c1ncncc1F)C(O)(Cn1cncn1)c1ccc(F)cc1F (stereo partly specified)	-14%
CC(=O)NC1C(O)C[C@@](O)(C(=O)O)OC1[C@@H](O)C(O)CO (stereo partly specified)	-1%
Fc1ccc(C(c2ccc(F)cc2)N2CCN(C/C=C\c3ccccc3)CC2)cc1	-32%
COCCn1c(=O)c(-c2cccs2)nc2cnc(N3CCOCC3)nc21	15%
CO/N=C(\C(=O)N[C@@H]1C(=O)N2C(C(=O)O)=C(CSc3nc(C)c(CC(=O)O)s3)CS[C@H]12)c1csc(N)n1	18%
COc1ccc(CNc2cc(-c3cccc(C#N)c3)ncn2)c(OC)c1	-34%
Cc1ccc(CN2CCOc3ccc(CN4CCC(O)(c5cccnc5)CC4)cc3C2)cc1	-20%
O=C(C1CC12CCN(Cc1cccc3cccnc13)CC2)N1CCN(Cc2cccs2)CC1 (stereo unspecified)	-22%
Cc1ccc(-c2ccc(C(=O)N3CCc4nnc(CNC(=O)c5ccccc5)n4CC3)cc2)cc1	-28%
c1cncc(-c2nccc(NCc3cccs3)n2)c1	-15%
CN1CCN(c2ccnc(-c3ccc(N(C)C)cc3)n2)CC1	-7%
Cc1cnc(CNc2ccnc(-c3ccccc3C)n2)cn1	-23%
CC(=O)c1ccc2c(c1)N(CCCN1CCN(CCO)CC1)c1ccccc1S2	54%[activator]
CC(=O)C[C@H]1c2ccccc2S(=O)(=O)N1C1CCCCC1	?
CCOC(=O)C(=O)C1(C(=O)OCC)Oc2cc(OC)cc(OC)c2C(=O)C1c1ccccc1 (stereo unspecified)	?
Clc1ccccc1-c1cc(NCCN2CCOCC2)ncn1	-15%

In another format: entries from further up
compound | EPAC2 ant val
CC1=CC2C(=O)c3cccc(O)c3C(=O)C2C(O)=C1 (stereo unspecified) | -10%
Clc1ccccc1-c1cc(NCCN2CCOCC2)ncn1 | -15%

Returning to the listing; the three compounds before the break are reprinted first.
SMILES	EPAC2 ant val
CC(=O)C[C@H]1c2ccccc2S(=O)(=O)N1C1CCCCC1	?
CCOC(=O)C(=O)C1(C(=O)OCC)Oc2cc(OC)cc(OC)c2C(=O)C1c1ccccc1 (stereo unspecified)	?
Clc1ccccc1-c1cc(NCCN2CCOCC2)ncn1	-15%
CN1CCN2c3ccccc3Cc3ccccc3[C@@H]2C1	?
CCCCNC(=O)c1sc2ncnc(NCC3CCCO3)c2c1C (stereo unspecified)	?
CCC(=O)O[C@]1(C(=O)CCl)[C@@H](C)C[C@H]2[C@@H]3C[C@H](F)C4=CC(=O)C=C[C@]4(C)[C@@]3(F)[C@@H](O)C[C@@]21C	?
COc1cccc(C(=O)N2CCc3c(C(=O)NC(C)c4ccco4)c(OC)cc(=O)n3CC2)c1OC (stereo unspecified)	-17%
CC(=O)NCCNc1ncnc2ccc(-c3cccc(NS(C)(=O)=O)c3)cc12	-15%
Cc1ccccc1-c1cc(NCc2cccnc2)ncn1	-15%
COc1ccc(C(=O)NCC2Cc3cc(C)cc(-c4cc(C(C)=O)ccc4F)c3O2)c(OC)c1OC (stereo unspecified)	-29%
COc1ncc2nc(-c3ccc(F)cc3)c(=O)n(C[C@H]3CCCO3)c2n1	-21%
NCC1O[C@@H](OC2C(N)C[C@H](N)[C@@H](O[C@H]3OC(CO)C(O)C(N)C3O)C2O)C(O)C(O)C1O (stereo partly specified)	-7%
CN1CCN(c2ncc3nc(CCc4ccccc4)c(=O)n(CCc4ccccc4)c3n2)CC1	-8%
COc1cccc(Cn2c(=O)cnc3cnc(OC)nc32)c1	-4%
CC(C)NC(=O)N1CCC2(CC1)CCN(C(=O)c1cccc(F)c1)CC2	-29%
CC[C@H](C)CCCCC(=O)N[C@@H](CCN)C(=O)N[C@H](C(=O)N[C@@H](CCN)C(=O)N[C@H]1CCNC(=O)[C@@H]([C@H](C)O)NC(=O)[C@H](CCN)NC(=O)[C@H](CCN)NC(=O)[C@H](CC(C)C)NC(=O)[C@@H](CC(C)C)NC(=O)[C@H](CCN)NC1=O)[C@@H](C)O	-26%[56.6 µM]
O=C(O)/C=C/c1ccc(O)c(O)c1	6%&17%&-11%&1%
CC(=O)N1CCC2(CCCN(C(=O)Nc3cccc(C#N)c3)C2)CC1	-13%
N[C@](CC1c2ccccc2Oc2ccccc21)(C(=O)O)[C@@H]1C[C@@H]1C(=O)O	-24%
CCC(=O)NC1Cc2ccccc2C(c2ccccc2)C1 (stereo unspecified)	?
CCN(Cc1ccncc1)C(=O)[C@@H](CO)c1ccccc1	-16%
COc1cccc2c1C(=O)c1c(O)c3c(c(O)c1C2=O)C[C@@](O)(C(=O)CO)C[C@@H]3O[C@H]1C[C@H](N)[C@H](O[C@@H]2CCCCO2)[C@H](C)O1	136%[activator]
COC(=O)C1CCCCN1Cc1ccc2c(c1)CN(Cc1cc(OC)c3c(c1)OCO3)CCO2 (stereo unspecified)	-26%
O=C(c1cccnc1)C1CCCN(Cc2ccc3c(c2)CN(C(=O)c2cn4ccccc4n2)CCO3)C1 (stereo unspecified)	?
O=C(c1cncs1)N(Cc1cc2cc3c(cc2nc1N1CCOCC1)CCC3)CC1CCCO1 (stereo unspecified)	-33%
COc1ccc(Oc2ncc3nc(C)c(=O)n(-c4ccccc4)c3n2)cc1	-7%
NC(=O)c1cc[n+](CC2=C(C(=O)[O-])N3C(=O)[C@@H](NC(=O)Cc4cccs4)[C@H]3SC2)cc1	12%[56.6 µM]
O=c1[nH]c(=O)n([C@H]2C[C@H](O)[C@@H](CO)O2)cc1Br	8%&-11%&-17%
CN1CCN(c2ccnc(-c3cccnc3)n2)CC1	-11%
N[C@H](CCC(=O)NCC(=O)O)C(=O)O	-26%
COc1cc2c(cc1OC)-c1cc(=Nc3c(C)cc(C)cc3C)n(C)c(=O)n1CC2	14µM*!
CN(C)CC(C)(O)c1ccc2c(c1)CN(Cc1cnn(-c3ccccc3)c1)CCO2 (stereo unspecified)	12%
CO/N=C(/C(=O)N[C@@H]1C(=O)N2C(C(=O)O)=C(COC(N)=O)CS[C@H]12)c1ccco1	18%&37%
COc1cccc(Cn2c(=O)c(-c3ccc(F)cc3)nc3cncnc32)c1	-15%
COc1cc(OC)cc(C(=O)NCC2Cc3cccc(-c4nc(C)cnc4C)c3O2)c1 (stereo unspecified)	0%
O=C(O)C1=C(CSc2nnnn2CS(=O)(=O)O)CS[C@@H]2[C@H](NC(=O)[C@H](O)c3ccccc3)C(=O)N12	6%
CN(C)C(=O)c1ccc(-c2nccc(NCc3ccccc3)n2)cc1	-9%
COc1cccc(Nc2ncc3nc(C)c(=O)n(C)c3n2)c1	-21%
OCC(O)CS (stereo unspecified)	-26%
CC(c1ccc(N(C)C)cc1)c1ccnc2ccccc12 (stereo unspecified)	-13%
CN(C)C(=O)c1ccc(-c2ccc3ncnc(NCc4cccnc4)c3c2)cc1	-7%
COc1ccc(-c2nc3cnc(OC)nc3n(C)c2=O)cc1	12%
CNC(C)C#Cc1c(-c2cc(OC)c(OC)c(OC)c2)noc1C (stereo unspecified)	?
OCl	0%
COc1ccc(-c2cn(Cc3ccc4ccccc4c3)nn2)cc1	-24%
CC[C@H](CO)Nc1nc(NCc2ccccc2)c2ncn(C(C)C)c2n1	10%
Cc1c(C2CCN(CCc3ccccc3)CC2)noc1-c1ccc(Cl)cc1	-8%&-29%
O=C(O)c1ccc(S(=O)(=O)N(Cl)Cl)cc1	?
Nc1c(NC/C=C\COc2cc(CN3CCCCC3)ccn2)c(=O)c1=O	9%
O=C(O)c1nc(=O)[nH]c(=O)[nH]1	-17%
Cc1noc(C)c1-c1ccc2ncnc(N(C)C)c2c1	-11%
CC(=O)C[C@H]1c2cc(C(F)(F)F)ccc2S(=O)(=O)N1c1ccccc1	-27%
O[C@@H](c1ccccc1)C1CCN(CCc2ccccc2)CC1	-21%
O=C(c1cccc(Cn2cccn2)c1)N1CCOc2c(cc(-c3csc4ccccc34)cc2OC2CCOC2)C1 (stereo unspecified)	-26%
CCNc1ncc2nc(C)c(=O)n(C[C@H]3CCCO3)c2n1	-24%
CCCOc1ccc2nc(NC(=O)OC)sc2c1	-24%
COc1ncc2nc(-c3ccccc3)c(=O)n(C3CC3)c2n1	-4%
O=S1(=O)CCO[C@H]2CCCC[C@@H]2N1Cc1ccccc1	?
C[Se]CCC(N)C(=O)O (stereo unspecified)	1%
CC(=O)Nc1c(I)c(C(=O)O)c(I)c(N(C)C(C)=O)c1I	16%
CC(C)(C)C(=O)OCOC(=O)C1N2C(=O)CC2S(=O)(=O)C1(C)C (stereo unspecified)	40%[activator]
CCC1(C2CCN(C(=O)c3cc(C)cc(C)c3)CC2)NC(=O)N(CCc2scnc2C)C1=O (stereo unspecified)	1%
O=C1CC2(CCCC2)CC(=O)N1CCCCNC[C@H]1COc2ccccc2O1	-18%
Continuation:
SMILES	EPAC2 ant val
O=S1(=O)CCO[C@H]2CCCC[C@@H]2N1Cc1ccccc1F	?
CCCCCc1c2c(cc(O)c1C(=O)O)OC(=O)c1cc(C(=O)CCCC)c(OC)cc1O2	?
Cc1ccc(C(=O)Nc2cccc(-c3nc(CNC(=O)c4cccc(C)c4C)c(C)o3)c2)s1	6%
CC1(C)C(=O)CC[C@@]2(C)C1CC(O)[C@@]1(C)C3=CC(=O)OC(c4ccoc4)[C@]3(C)CCC21 (stereo partly specified)	-10%
O=C1CC[C@H](C(=O)N2CCCCC2)N1	27%
CC12CCC(C1)C(C)(C)C2=O (stereo unspecified)	-20%
CCCCC(C)(O)C/C=C/[C@H]1[C@H](O)CC(=O)[C@@H]1CCCCCCC(=O)OC (stereo partly specified)	-19%
